# MgrA DNA FP – S. aureus MgrA activity modulators, primary screen, biochemical, S. aureus Newman, fluorescence polarization; MgrA-DNA binding; inhibition, %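 (about 10 µg/mL by stock and volumes)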; 0.13% of 84,000 active; AID 602314, 2012;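 active = above 50% in either of two replicates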;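 also: 0% = protein plus DNA without compound and 100% = DNA alone without protein; higher means less MgrA bound to DNA so lower polarization; one replicate is shown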
# Sa helicase inh – inhibitors of S. aureus replicative helicase, primary screen, biochemical, fluorescence unwinding readout; purified S. aureus helicase, fluorescence unwinding assay; about half of the hits fall short of the stated cut; inhibition, %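 (tested at about 80 µM)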; 0.05% of 120,000 active; replicative DNA helicase (DnaC/DnaB), Staphylococcus aureus;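 active = both duplicates at 50% or more, or one of them with a favoured structure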;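 also: 0% = mean of negative control wells and 100% = mean of positive control wells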
# The depositor's hits bear a star; x = no result given.
SMILES,MgrA DNA FP,Sa helicase inh
CC(=O)Nc1ncc(CN2CCOCC2)s1,0.0,8
C/C(COc1ccccc1OCC(=O)O)=N\NC(=O)c1ccncc1,2.8,5
CC(c1ccccc1)n1c(SCc2nc(-c3ccc(C(C)(C)C)cc3)no2)n[nH]c1=O (configuration not stated),x,-15
COc1ccccc1NC(=O)CSc1nnc2sc3ccccc3n12,x,15
COC(=O)NC(Nc1cccc(C(F)(F)F)c1)C(=O)c1ccccc1 (configuration not stated),0.4,-12
O=C(Cn1ccc(C(F)(F)F)n1)N1N=CCC1(O)C(F)(F)F (configuration not stated),x,-8
O=C(NC1CC1)C1=COCCO1,-1.1,16
O=C(O)CCC(=O)Nc1ccc(Oc2ncnc3cc(Cl)ccc23)nc1,x,-17
NNC(=O)c1ccccc1-n1cccc1,1.4,x
O=C(O)CC1C(=O)N(c2ccccc2)C(=S)N1c1ccccc1 (configuration not stated),-0.6,7
COC(=O)c1ccc(CSc2cc(C)[nH]c(=O)n2)o1,x,3
O=C(CN(c1cccc([N+](=O)[O-])c1)S(=O)(=O)c1ccccc1)NCCSCc1ccc(Cl)cc1,2.4,x
O=C(COc1ccc(F)cc1)NCCN1CCOCC1,-4.9,0
c1ccc(CNC2=NCCCC2)cc1,1.4,3
N#C/C(C(=O)Nc1ccc(SC(F)F)cc1)=c1/s/c(=C\c2ccco2)c(=O)n1-c1ccccc1,x,-7
COc1ccc(CNC(=O)c2nn3c(C(F)(F)F)cc(-c4ccco4)nc3c2Cl)cc1,-1.3,x
CCSc1nc2c(c(=O)n1Cc1ccco1)C1(CCCCC1)Cc1ccccc1-2,x,-30
N#CCCS(=O)(=O)c1ccc(Cc2ccc(S(=O)(=O)CCC#N)cc2)cc1,x,-15
Nc1ccc(C(=O)Nc2ccc(O)c(-c3nc4ccccc4o3)c2)cc1,0.8,-1
COc1cccc(C2Sc3ccccc3NC3=C2C(=O)c2ccccc23)c1OC (configuration not stated),x,7
O=C1NCCc2c1[nH]c1c(Br)cc3c(c21)OCCO3,-0.2,x
COC(=O)c1cnn2c(C)c(Cc3ccccc3)c(C)nc12,-1.8,3
CCN(CC(=O)Nc1ccccc1C(=O)Nc1ccccc1)CC(=O)NC1CCS(=O)(=O)C1 (configuration not stated),x,5
CCCCC/C=C\C/C=C\C/C=C\C/C=C\CCCC(=O)O,-3.1,x

# An excerpt from above in order of the MgrA DNA FP value, smallest number first:
smiles | MgrA DNA FP | Sa helicase inh
CCCCC/C=C\C/C=C\C/C=C\C/C=C\CCCC(=O)O | -3.1 | x
COC(=O)c1cnn2c(C)c(Cc3ccccc3)c(C)nc12 | -1.8 | 3
O=C(NC1CC1)C1=COCCO1 | -1.1 | 16
O=C(O)CC1C(=O)N(c2ccccc2)C(=S)N1c1ccccc1 (configuration not stated) | -0.6 | 7
COC(=O)NC(Nc1cccc(C(F)(F)F)c1)C(=O)c1ccccc1 (configuration not stated) | 0.4 | -12
Nc1ccc(C(=O)Nc2ccc(O)c(-c3nc4ccccc4o3)c2)cc1 | 0.8 | -1

# Remaining list, next part:
SMILES,MgrA DNA FP,Sa helicase inh
Cc1cc(NS(=O)(=O)c2ccc(N3C(=O)C=CC3=O)cc2)no1,23,x
CC1(C)CC(=O)C2=C(C1)OC(c1ccccc1)(C(C)(C)C)NC2=O (configuration not stated),-0.2,23
COc1ccccc1Nc1nc2nonc2nc1N1CCCCC1C (configuration not stated),-0.5,x
COC(=O)c1ccc2nc(NC(=O)Cc3ccccc3)sc2c1,x,-17
O=C(NC1=NCCS1)[C@H](Cc1ccccc1)N1C(=O)c2ccccc2C1=O,x,19
Cc1ccc2cccc(OC(=O)N3CCOCC3)c2n1,x,-11
COc1cccc(C(=O)NCc2ccc3[nH]c4c(c3c2)CCCC4)c1,0.2,14
CCNc1nc(NCC)nc(NS(=O)(=O)c2ccc(C)cc2)n1,-1.0,x
Cc1nc2cc3ccccc3cc2c(=O)[nH]1,5.8,6
Cc1cccc2c(N=NC(=O)OC(C)(C)C)c(O)[nH]c12,x,9
COc1ccc(OCC(=O)Nc2ccncc2)cc1,0.7,-17
Cc1[nH]c2ccccc2c1SCCNC(=O)/C=C/c1ccccc1,x,-3
N#CCSc1ncnc2ccccc12,x,-27
O=C1c2ccccc2C(=O)N1CCc1c[nH]c2ccc(O)cc12,x,-9
O=C(CSc1nnc2c(n1)CCCC2)c1ccc(Cl)cc1,4.2,10
O=C(c1cccs1)N(c1ccc(F)cc1)c1nc2ccccc2s1,x,-6
Cn1c(=O)n(C)c2cc(C=C3C(=O)c4ccccc4C3=O)ccc21,27,4
O=C(CCCN1C(=O)/C(=C/c2cccs2)SC1=S)Nc1cccc(C(F)(F)F)c1,x,-23
O=C(CSc1nnc2n1CCCCC2)Nc1ccccc1C(F)(F)F,x,-5
CC1(CCc2ccc3c(c2)OCO3)NC(=O)c2ccccc2N1 (configuration not stated),1.2,19
COc1ccc(C(=O)CCC(=O)NC2=NCCS2)cc1,0.5,-12
O=C(COc1ccccc1Cl)N1CCCc2ccccc21,0.7,6
CCN(CC)C(=O)c1cc2sc3ccccc3c2s1,-1.0,-8
CC(C)Cn1c(N2CCN(C(=O)Nc3ccc(Cl)cc3)CC2)nc2ccccc21,0.5,17

# Reformatted with each value named: part of the list above
Structure: Cn1c(=O)n(C)c2cc(C=C3C(=O)c4ccccc4C3=O)ccc21
  MgrA DNA FP = 27; Sa helicase inh = 4

Structure: O=C(CCCN1C(=O)/C(=C/c2cccs2)SC1=S)Nc1cccc(C(F)(F)F)c1
  MgrA DNA FP = x; Sa helicase inh = -23

Structure: O=C(CSc1nnc2n1CCCCC2)Nc1ccccc1C(F)(F)F
  MgrA DNA FP = x; Sa helicase inh = -5

# Following part
SMILES,MgrA DNA FP,Sa helicase inh
O=C(O)c1c2c(nc3ccccc13)CSc1ccc(Cl)cc1-2,0.0,x
O=C(O)CC1(CC(=O)NCc2ccccn2)CCCCC1,2.8,x
Brc1ccc(CNc2ccc3cn[nH]c3c2)s1,2.4,10
O=C(Nc1ccc(C(F)(F)F)nc1OCc1ccccc1)c1ccccc1,-1.5,16
CCNc1nc2ccccn2c(=O)c1/C=C1\SC(=S)N(Cc2ccco2)C1=O,x,-59
Cc1nnc(SCCCCSc2nnc(C)n2N)n1N,2.1,13
CCCn1c(=O)[nH]c(=O)c2c(C(=O)O)cc(-c3ccccc3)nc21,x,6
Cc1ccccc1-c1nnc(N(C)C(=O)C2CC2)s1,-2.3,8
CC1(C)CC(=O)C(=Cc2c[nH]c3ccccc23)C(=O)C1,x,-35
COC(=O)c1ccc(COC(=O)COc2ccc(C#N)cc2)o1,x,1
Cc1ccc(Sc2ncccc2NC(=O)Cc2ccccc2)cc1,-3.9,x
C=CCn1c(SCc2nc3ccccc3[nH]2)nnc1-c1ccco1,1.5,-14
CN1C(=O)C(O)N(c2ccccc2)C1=O (configuration not stated),1.5,4
O=C(Cn1c(N2CCN(c3ccc(F)cc3)CC2)nc2ccccc21)c1ccccc1,x,9
CC(C)CCNC(=O)c1cn(C)c2ccc(S(=O)(=O)N3CCC(C)CC3)cc2c1=O,-1.4,9
C=CCSc1ncnc2c1sc1nc(C)cc(C)c12,-2.3,x
Fc1ccc(NC(=S)Nc2cc(C(F)(F)F)ccc2N2CCCC2)cc1Cl,-0.5,x
CN1C(=O)C(=CN2CCc3ccccc32)C(=O)N(C)C1=O,x,-18
COc1ccc(CNC(=S)N(Cc2nnc(-c3ccccc3Cl)o2)C2CC2)cc1,x,3
CC(=O)Nc1ccccc1OCC(=O)N(C(C)C)C(C)C,0.9,-7
O=C(CSC1CCCCC1)N1CCOCC1,x,16
COc1ccc(C)c2sc(NNC(=O)C3=COCCO3)nc12,x,5
Cc1cc(=O)oc2c3c(ccc12)O/C(=C/C=C/c1ccccc1)C3=O,0.4,-7
Cc1ccc(NC(=S)NCC2CCCO2)cc1 (configuration not stated),1.2,9
O=C1/C(=N/NC(=O)C2COc3ccccc3O2)c2cccc3cccc1c23 (configuration not stated),x,7
CCc1ccc(-c2nn(-c3ccccc3)c(=S)c3ccccc23)cc1,-1.3,1
CCOc1cc(/C=C2\N=C(c3ccc(Br)cc3)OC2=O)ccc1OC(C)=O,-4.7,x
O=C(NC(C(=O)O)C12CC3CC(CC(C3)C1)C2)C1CCCCC1 (configuration not stated),x,1
CC(C)(C)c1nnc(Nc2ccc(Cl)c(C(F)(F)F)c2)[nH]c1=O,x,-31
NC(=O)C12CCCC(Br)(CCC1)C2,-0.9,18
CNC(=O)Nc1cc(C(C)(C)C)no1,-0.3,4
CCN(C(=O)c1ccc(Br)cc1)c1ccccc1,-1.1,5
CC(C)OC(=O)Cn1nnc(-c2ccccc2)n1,-0.2,3
C=CCSc1nc2sc3c(c2c(=O)[nH]1)CCCC3,x,-9
Cc1ccc(NC(C(=O)O)c2ccccc2)cc1 (configuration not stated),-3.6,x
CCn1c(-c2ccccc2)cnc1SCC(=O)c1sc2c(c1C#N)CCCC2,1.8,2
O=c1c2ccccc2nc2sc3ccc(Cl)cc3n12,1.0,x
C=CCNC(=O)c1cc(-c2ccc(O)cc2)on1,x,11
C=C(C)C(=O)Oc1ccc(N2C(=O)C3C4C=CC(C4)C3C2=O)cc1 (configuration not stated),x,2
N#C/C(=C\c1ccc(OC(=O)c2ccco2)cc1)C(=O)Nc1ccccc1Br,0.8,9
O=C(CN1C(=O)CSC1=O)Nc1ccccc1N1CCOCC1,-1.4,14
O=C(O)CCCC(=O)Nc1ccccc1C(F)(F)F,1.1,x
COCCN(Cc1nc2ccccc2c(=O)[nH]1)C(=O)Cn1cnc2sccc2c1=O,x,-21
CCN(CC)C(=O)CSc1nnc2c(n1)[nH]c1ccc(C(C)C)cc12,1.0,0
O=C(NC(Cc1c[nH]c2ccccc12)C(=O)NC1CCCCC1)OCc1ccccc1 (configuration not stated),x,-2
O=C(CCc1ccc(S(=O)(=O)N2CCOCC2)cc1)NCC(F)(F)F,x,-7
COC(=O)C(N)c1ccccc1 (configuration not stated),0.1,-2
CCc1cc2c(COC(=O)c3cccc(NS(C)(=O)=O)c3)cc(=O)oc2cc1O,x,-1

# Profiles from above. Order of screens: MgrA DNA FP, Sa helicase inh
# C=CCNC(=O)c1cc(-c2ccc(O)cc2)on1 across the screens: x, 11
# O=C(O)CCCC(=O)Nc1ccccc1C(F)(F)F across the screens: 1.1, x

# Other entries:
SMILES,MgrA DNA FP,Sa helicase inh
CC(NC(=O)c1ccccc1)c1ccccc1 (configuration not stated),1.4,15
CCCc1oc2ccc(NS(=O)(=O)c3ccccc3)cc2c1C(=O)OCC,x,22
O=C(O)c1ccccc1S(=O)CCO (configuration not stated),x,4
CCc1ccc2nc(SCC(=O)N(CC)CC)c(C#N)cc2c1,3.5,11
COc1ccc(C2CC(=O)C3=C(C2)Nc2ccccc2NC3c2coc3ccccc3c2=O)cc1 (configuration not stated),-0.1,x
O=C(Nc1ccc(-c2cc3ccccc3oc2=O)cc1)c1ccc2c(c1)OCCO2,-1.6,x
Cc1ccc(NC(=O)c2ccc3nc[nH]c3c2)c(O)c1,x,-4
O=c1c(Cl)c(NCc2ccco2)cnn1-c1ccccc1,2.0,10
O=C(Nc1cccc(F)c1)c1cccc2c1C(=O)N(Cc1cccnc1)C2,1.5,11
CC(=O)N1CCc2c(sc3c2c(=O)n(-c2ccccc2)c(=O)n3Cc2ccccc2F)C1,x,5
O=C(O)c1ccc(S(=O)(=O)N(Cc2ccco2)CC2CCCO2)cc1 (configuration not stated),0.2,-1
CC(C)[C@@H](C(=O)OCc1cc(=O)n2ccsc2n1)N1C(=O)c2ccccc2C1=O,x,-11
O=C(O)c1ccccc1C(=O)N1CCc2ccccc21,-5.5,14
CCOC(=O)c1oc2c(c1C)/C(=N/O)CCC2,0.2,9
O=C(ON1C(=O)CCC1=O)c1ccc(Cl)cc1Cl,x,27
Cc1c(-c2ccnn2C(=O)Nc2ccccc2)sc2ccccc12,-1.4,x
O=c1[nH][nH]c(=O)c2c(NS(=O)(=O)c3ccccc3)cccc12,-0.8,10
CCOCCOC(=O)C1=C(C)NC2=C(C(=O)CC(C)(C)C2)C1c1cc(Br)c(O)c(OCC)c1 (configuration not stated),-0.3,x
Cc1cc(C)n2cc(CNc3ccc(N4CCCC4=O)cc3)nc2n1,x,-9
COc1ccc(-n2ccn(CC(=O)Nc3ccccc3)c(=O)c2=O)cc1,x,19
O=C(/C=C/S(=O)(=O)c1ccc(Br)cc1)c1ccc(F)cc1,7.8,x
CC(=Nc1ccccc1C(F)(F)F)c1cccs1,-0.1,x
CCc1nnc(NC(=O)c2ccncc2)s1,-0.7,x
CC(C)NS(=O)(=O)c1ccc(OCC(=O)N2CCC(Cc3ccccc3)CC2)cc1,1.2,7
CN(C)c1cc(O)c(C(=S)Nc2ccccc2)c(N(C)C)c1,-2.4,8
CCOC(=O)CN=Cc1c(O)[nH]c2ccccc12,0.0,11
COCCn1c(=NC(=O)CSC(C)=O)sc2cc(OC)ccc21,x,8
CC1CN(C2=NC(=O)/C(=C\c3ccccc3)S2)CC(C)O1 (configuration not stated),3.7,8
CCOc1ccc(NC(NC(=O)c2cccs2)C(=O)c2ccccc2)cc1 (configuration not stated),-1.3,1
Cc1ccc(-n2ncc3c(SCC(=O)NC(C)C)ncnc32)c(C)c1,x,-19
CCc1ccc(-c2cc(C)no2)cc1S(=O)(=O)NCc1cccs1,x,6
Cc1cccc(N2CCC(N=CN3CCOCC3)=N2)c1,-0.1,4
c1csc(Cc2nnc(SCc3cn4ccsc4n3)n2C2CCCCC2)c1,x,-5
O=C(Nc1ccc(-n2cnnn2)cc1)c1ccc(S(=O)(=O)N2CCCc3ccccc32)cc1,x,-6
O=c1[nH]cnc2sc3c(c12)CCC3,x,16
O=C(O)/C=C\C(=O)Nc1ccc(Cl)c(Cl)c1,x,6
O=S(=O)(NC1=NCCS1)c1ccc(N=NN2CCCCC2)cc1,-2.8,7
Oc1c(I)cc(I)c2cccnc12,8.8,x

# Source: PubChem (ICCB-Longwood Screening Facility, Harvard Medical School)

# An excerpt; rates above refer to the full screens.
